AID504770 = E. coli YBA685 growth inhibition, screen for V. cholerae RctB inhibitors. actives 0.27% (n = 130,000). AID 504770. E. coli YBA685 rctB-dependent plasmid, OD600 growth, 3 h; stronger effect = lower value. z-score (concentration not given with the values);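 active means z-score under -2 on both plates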;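 further: wells of about 30 µL received 100 nL stock; score is relative to mean and SD of the test wells; the first replicate is given; strong numbers were not always called active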
CapD inh = inhibitors of Bacillus anthracis CapD enzyme; actives 0.23% (n = 140,000); z-score (concentration not given with the values); AID 492967; purified CapD enzyme, fluorescence intensity read-out; stronger effect = lower value; some hits fall short of the stated cut;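 active means z-score under -4 in either of two replicates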;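 further: stock transfer was 100 nL into about 40 µL; score is relative to mean and spread of the plate; one replicate is shown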
Starred values were filed as active, the others as inactive; nt = no result given.

SMILES	AID504770	CapD inh
CSc1sc(-c2ccn[nH]2)c(-c2ccco2)c1C#N	-0.85	1.4
Cc1ccc(NC(=O)Nc2ccc3c(c2)N(C)C(=O)CS3)cc1	-0.15	-0.28
Cc1cccn2c(=O)cc(CN3CCC(C(=O)N4CCOCC4)CC3)nc12	-2.3	nt
CCOC(=O)c1cnc(Nc2ccccc2)nc1C(F)(F)F	-0.8	-0.89
Cc1ccc(C(=O)Oc2c(CN3CCN(C)CC3)cc(Cl)c3cccnc23)cc1	-0.2	nt
COc1cc(C(=O)Nc2cccc(C#N)c2)ccc1OC(F)F	0.55	nt
COc1cc(CN(C)C(C)C(=O)NC2CCCCC2)ccc1OC(F)F (centres undefined)	-0.25	nt
S=C(Nc1cccc(Cl)c1)N1CCCN(Cc2ccccc2Cl)C1	-0.65	0.28
Cn1ncc2c(=O)sc(NC(=O)c3ccccc3)nc21	-0.7	-1.7
CC(C)c1nc2ccccc2c2c1C(=O)N(NC(=O)c1sccc1N(C)C)C2=O	nt	-0.44
COc1cc(/C=C2/C(=O)Nc3cc(Cl)ccc32)cc(OC)c1O	0.9	nt
CCN(CC)S(=O)(=O)c1cccc(C(=O)N2CCN(C(=O)c3cccc(S(=O)(=O)N(CC)CC)c3)CC2)c1	nt	-0.86
CCOc1ccc(N2C(=O)/C(=C\C=C\c3ccccc3OC)S(=O)(=O)C2c2cccc([N+](=O)[O-])c2)cc1 (centres undefined)	nt	-1.9
O=C(Nc1nccs1)c1ccc(CSc2ccccc2)o1	0.2	0.12
C=CCn1c(CCC(=O)O)ccc1-c1ccccc1	-1	1.1
O=c1oc2cc(O)ccc2cc1-c1csc(-c2ccccc2Cl)n1	-0.3	25
COc1cccc(CN(Cc2ccco2)C(c2ccc(OC)c(OC)c2)c2nnnn2Cc2ccccc2)c1 (centres undefined)	-0.2	nt
CCCCCn1nc(C)c(/C=N\NC(=O)c2cccs2)c1C	-0.4	nt
COc1ccc(C2CC(c3cccs3)=NN2C(=O)CSc2cn(C)c3ccccc23)cc1 (centres undefined)	nt	0.58
CCOC(=O)c1ccccc1NC(=O)c1sc2nc(C)nc(N3CCC(C)CC3)c2c1C	nt	0.035
CCCCS(=O)C1CCCCC1OC(=O)c1ccccc1 (centres undefined)	-1.3	-0.15
O=C1c2ccccc2C(=O)N1CCCSc1nccn1-c1cc(Cl)ccc1Cl	-0.65	-0.67
CN(C(=O)CSc1nnc(N)s1)c1ccccc1	-0.7	-0.035
CCc1nnc(SCc2nc(-c3ccccc3F)oc2C)c2cc3oc(C)cc3n12	0.35	0.36
Cc1ccc(Cl)cc1N1CCN(CCNC(=O)CCc2nnc3n(CC(C)C)c(=O)c4ccccc4n23)CC1	0.45	0.36
CN(c1ccccc1C(=O)N1CCN(Cc2ccc3c(c2)OCO3)CC1)S(C)(=O)=O	-0.6	nt
COc1ccc(OC)c(CCNc2ccc3nncn3n2)c1	-0.35	0.065
CCOC(=O)c1ccc(-n2c(C)cc(/C=C3\C(=O)N(c4ccccc4)N=C3C)c2C)cc1	nt	-0.42
Cc1nn(-c2ccccc2)c(Cl)c1CSc1nnc(N)s1	0.55	nt
COc1ccc(N2CCN(C(=S)Cc3ccccc3)CC2)cc1	2.5	nt
COc1ccc(CC(=O)NCC2COc3ccccc3O2)cc1OC (centres undefined)	-0.55	-1.2
CCOC(=O)C1=C(c2ccccc2)Nc2ncnn2C1c1ccncc1 (centres undefined)	-0.9	-0.84
O=C(Nc1ccc(Cl)cc1)NC1CC2CCC1C2 (centres undefined)	-0.6	0
CC(C)C(=O)Nc1ccc(N2CCN(C(=O)c3ccccc3)CC2)cc1	-1.2	nt
CCOc1ccc(NC(=O)c2ccc3c(=O)n(-c4ccc(OC)cc4OC)c(=S)[nH]c3c2)cc1	nt	0.65
O=C(O)c1cc(-c2ccccc2)on1	1.4	nt
O=C(c1ccc2cn[nH]c2c1)N1CCC2(CC1)OCCO2	0.2	-0.075
CN(C)c1ncc(C(=O)O)cn1	-0.35	14
O=C(N/N=C/c1cccc2ccccc12)c1cccnc1	nt	-0.21
CCOC(=O)c1ncoc1-c1ccc(Cl)cc1	-0.75	-0.12
CC1CC(C)CN(c2nc(-c3ccccc3O)nc3ccccc23)C1 (centres undefined)	nt	-0.24
CC1(C)C2CCC1(CS(=O)(=O)N1CCCc3ccccc31)C(=O)C2 (centres undefined)	-0.25	0.035
CC(=O)Nc1ccc(S(=O)(=O)N2CCC(c3nc(-c4cccnc4)no3)CC2)cc1	nt	0.11
O=c1c2ccccc2nc(-c2ccccc2)n1-c1ccccc1	0.2	10
COC(=O)c1nn(-c2ccccc2)c(Sc2ccc(C)cc2)c1/C=N/O	nt	0.41
CCOC(=O)c1c(Cl)nc2ccccc2c1Cl	-0.1	0.37
O=S(=O)(CCSc1ccc(Cl)cc1)CCSc1ccc(Cl)cc1	nt	-0.03
O=C(COc1ccccc1)NC(c1ccc([N+](=O)[O-])cc1)c1cc(Cl)c2cccnc2c1O (centres undefined)	nt	-0.87
N#C/C(=C\Nc1cc(C(F)(F)F)cc(C(F)(F)F)c1)S(=O)(=O)c1ccc(Cl)cc1	nt	0.025
Cc1nn(-c2ccccc2)c(C)c1/C=N/NC(=O)c1ccncc1	nt	-1.6

Following part
SMILES	AID504770	CapD inh
O=C(CCN1C(=O)/C(=C/c2ccc(Cl)cc2Cl)SC1=S)Nc1nccs1	nt	0.79
CC(=O)N[C@@H](C)C(=O)N1CCN(S(=O)(=O)c2ccc(Cl)cc2)CC1	1.4	nt
Cn1c(NCc2cc(Cl)ccc2O)nc2ccccc21	-0.15	-0.33
Cc1ccc(-c2noc(CCc3ccccc3)n2)cc1	-0.5	-0.43
Cc1cccc(NC(=O)c2sc3nc4c(cc3c2N)C(=O)CC(C)(C)C4)c1	nt	0.04
Cc1ccc(C(=O)Nc2ncccc2S(=O)(=O)c2ccccc2)cc1	nt	-0.24
CC1CCCN(CCCNS(=O)(=O)c2ccc(-c3ccc(=O)[nH]n3)o2)C1 (centres undefined)	-0.2	5.7
NC(Cc1ccc(Cl)cc1)C(=O)O (centres undefined)	nt	-0.47
Clc1ccc(CSc2nncn2-c2ccc3c(c2)OCCO3)cc1	0.1	0.56
O=c1cc(-c2nc3ccccc3s2)oc2ccccc12	0.05	0.5

Exported bar-delimited: part of the list above
Structure | AID504770 | CapD inh
COc1ccc(CC(=O)NCC2COc3ccccc3O2)cc1OC (centres undefined) | -0.55 | -1.2
CCOC(=O)C1=C(c2ccccc2)Nc2ncnn2C1c1ccncc1 (centres undefined) | -0.9 | -0.84
O=C(Nc1ccc(Cl)cc1)NC1CC2CCC1C2 (centres undefined) | -0.6 | 0

Going on with the list.
SMILES	AID504770	CapD inh
COC(=O)CC1(C(=O)OC)Oc2ccc(Br)cc2C(=O)N1c1ccc(F)cc1F (centres undefined)	0.55	0.33
CCOC(=O)c1cccc(NC(=O)CCc2ccccc2)c1	0.45	0.49
Nn1c(SCC(=O)NCc2ccc3c(c2)OCO3)nnc1C1CC1	0.9	nt
Oc1c(N=Nc2ccc(Cl)cc2)c2ccccc2n1CN1CCOCC1	nt	0.005
Nc1c(S(=O)(=O)c2ccccc2)nnn1-c1ccccc1	-1.5	1.1
Cc1cnc(NS(=O)(=O)c2cn(C)cn2)c(Br)c1	-0.15	0.93
CCCCCc1ccc(NC(=O)NNc2ccc(F)c(Cl)c2)cc1	nt	0
O=C1c2ccccc2-c2nc(-c3ccccc3)cc3cccc1c23	-1.2	-0.54
COc1ccc(CCNC(=O)COc2cc(C)c3ccccc3n2)cc1	1.4	-0.56
COc1ccc(C2c3cc4c(cc3OC(C)(N3CCCC3)C2C)OCO4)cc1 (centres undefined)	0.95	0.05
O=C(O)/C=C/C(=O)N(Cc1ccccc1)Cc1ccccc1	-0.45	0.14
COc1ncnc2sc(-c3ccccc3)cc12	-0.1	7.2
O=C(Cn1nnc2sc3c(c2c1=O)CCCC3)OCc1ccccc1	-0.1	-0.19
O=C(NCc1ccc(N2CCOCC2)cc1)c1cc(F)cc2c1OCOC2	-0.45	1.8
COC(=O)c1c(N)sc(C(=O)N2CCCC2)c1C	-0.45	-0.5
CON/C=N/c1nc2nccc(-c3ccc(Oc4ccccc4)cc3)n2n1	nt	-0.075
CCCCN(Cc1ccco1)S(=O)(=O)c1c[nH]c(C(=O)OC)c1	-1.6	-1.5
CCCCC(=O)Nc1ccc(N2CCN(c3ccc(F)cc3)CC2)cc1	nt	-0.42
Cc1nc2sccn2c1/C=N/NC(=O)C12CC3CC(CC(C3)C1)C2	-1.1	nt
COc1cccc(-n2c(=O)c3c(C)c(C(=O)N(C)C)sc3n(Cc3ccccc3)c2=O)c1	-0.3	-0.43
COc1cc(Br)c(C2CC(=O)Nc3c2ccc2ccccc32)cc1OC (centres undefined)	nt	-1
CC1CC(C(=O)O)C(C(=O)O)CC1C (centres undefined)	0.05	0.24
Clc1ccc(Cn2c(-c3cccnc3Cl)nc3ccccc32)cc1	nt	1.3
O=C(CSC(=O)c1ccccc1)Nc1ccc(Br)cc1F	0.2	-0.2
NNc1nc2c(c(=O)n1Cc1ccccc1)C1(CCCCC1)Cc1ccccc1-2	nt	0.97
O/N=C/c1cc2c(cc1Br)OCO2	-0.35	0.66
Nc1ncc(-c2nc3ccccc3s2)c(N)n1	0.15	34
O=C(COc1ccc(Cl)cc1)CC(=O)c1ccc(Cl)cc1	-0.1	-0.28
O=C(Nc1n[nH]c(C2CCCCC2)n1)C1CCCCC1	-0.45	0.58
O=C(c1ccccc1)N1CCN(C(=O)c2nn3c(C(F)(F)F)cc(-c4ccco4)nc3c2Cl)CC1	nt	0.42

5 of the compounds above, as a markdown table:
| Structure | AID504770 | CapD inh |
| --- | --- | --- |
| COc1cc(Br)c(C2CC(=O)Nc3c2ccc2ccccc32)cc1OC (centres undefined) | nt | -1 |
| CC1CC(C(=O)O)C(C(=O)O)CC1C (centres undefined) | 0.05 | 0.24 |
| Clc1ccc(Cn2c(-c3cccnc3Cl)nc3ccccc32)cc1 | nt | 1.3 |
| O=C(CSC(=O)c1ccccc1)Nc1ccc(Br)cc1F | 0.2 | -0.2 |
| NNc1nc2c(c(=O)n1Cc1ccccc1)C1(CCCCC1)Cc1ccccc1-2 | nt | 0.97 |

Next structures follow.
SMILES	AID504770	CapD inh
CC1CCN(S(=O)(=O)c2ccc3c(c2)C(=O)c2cc(S(=O)(=O)N4CCC(C)CC4)ccc2-3)CC1	nt	0.59
Nn1c(CCC2CCCCC2)n[nH]c1=S	-0.15	nt
COC(=O)c1ccc(OC(=O)C(C)C)cc1	-0.7	1.3
Cc1ccccc1Cn1c(-c2cccs2)noc1=O	0	2.5
CCn1c(SCc2cc(=O)oc3cc(O)ccc23)nc2ccccc21	-0.05	nt
Oc1ccc(C2Nc3ccccc3C(c3ccccc3)(c3ccccc3)O2)cc1O (centres undefined)	nt	5.8
Cc1nc(C(=O)Nc2ccccc2)sc1C(=O)Nc1ccccc1	-0.8	0.42
CCCN(CCC)c1nc(OC)nc(OC)n1	-0.05	0.74
Cc1cccc(OCc2nnc(SCc3csc(Nc4ccccc4C)n3)o2)c1	0.2	nt
CC(=O)OC[C@H]1O[C@@H](O[C@H]2[C@H](OC(C)=O)[C@@H](OC(C)=O)[C@H](OC(C)=O)O[C@@H]2COC(C)=O)[C@H](OC(C)=O)[C@@H](OC(C)=O)[C@H]1OC(C)=O	nt	0.18
O=C(O)c1cc(N2C(=O)/C(=C/c3ccc([N+](=O)[O-])cc3)C=C2c2ccccc2)ccc1Cl	nt	-0.21
Cc1cc(-c2ccc(C)c(S(=O)(=O)N3CCCN(Cc4ccc(F)cc4)C3)c2)on1	1.8	-1.9
CCOc1ccc(NC(=O)CS(=O)(=O)c2cccc3nsnc23)cc1	0	-1.4
Cc1cc(NC(=O)NN2CCOCC2)nn1-c1c(Cl)cc(Cl)cc1Cl	0.5	-0.86
Cc1ccc(S(=O)(=O)c2nc(C(C)(C)C)oc2N2CCOCC2)cc1	-1.4	-0.15
CC(OC(=O)c1ccncc1)C(=O)Nc1ccc(N2CCOCC2)cc1 (centres undefined)	0.05	nt
O=S(=O)(c1ccccc1)N1N=C(c2ccccc2)CC1c1ccc(Br)cc1 (centres undefined)	nt	0.22
CC1CCc2nc(NC(=O)CN3C(=O)CCC3=O)sc2C1 (centres undefined)	-0.45	-0.15
Clc1ccc(CSc2cc3c(nn2)-c2ccccc2CC3)c(Cl)c1	nt	-0.01
COc1ccccc1Oc1ccc(C(F)(F)F)cc1NC(=O)NC(=O)c1ccccc1F	nt	-0.045

Full records from above. Order of values: AID504770, CapD inh
Results for CC(=O)N[C@@H](C)C(=O)N1CCN(S(=O)(=O)c2ccc(Cl)cc2)CC1 : 1.4, nt
Results for CC(=O)Nc1ccc(S(=O)(=O)N2CCC(c3nc(-c4cccnc4)no3)CC2)cc1 : nt, 0.11

Later entries.
SMILES	AID504770	CapD inh
O=C(Nc1cccc(Cl)c1)N1CCN(c2cc(C(F)(F)F)ccn2)CC1	nt	6.3
CCNc1ccc(C2(O)C(=O)c3ccccc3C2=O)cc1	-0.2	-0.33
CCC(=O)ONc1nc(C)cc(C)n1	-0.1	-0.21
Cc1ccc(-n2c(C)cc(C)c(C#N)c2=O)cc1Cl	-0.1	23
C=CCc1ccccc1OCC(O)CN1CCN(c2ccccc2F)CC1 (centres undefined)	1.8	-0.77
CCOc1ccc(-n2c(SCC(N)=O)nc3ccccc3c2=O)cc1	0.3	0.81
Cc1sc(-c2ccc(Cl)cc2)nc1OCc1ccc(Cl)cc1	nt	23
Oc1cccc(C=Nc2ccc(N3CCCCC3)cc2)c1O	-0.55	-1.2
CC12CC3(C(=O)O)C1CCC23C (centres undefined)	0.25	-0.41
Cc1cc(-c2ccc(C)c(S(=O)(=O)N(CC(C)C)CC(C)C)c2)on1	0.35	-1.4
Cc1ccc(C(=O)[C@@H]2[C@@H](c3ccccc3F)C(C#N)(C#N)[C@H]3C=Cc4ccccc4N23)cc1	nt	0.91
Cc1noc(C)c1-c1nnc(-c2ccc(C(F)(F)F)cc2)o1	1.1	1.1
Cc1c(C(=O)O)sc(=S)n1CCOc1ccccc1	1.2	-0.05
O=C1CCC(=O)N1N1C(=O)c2ccccc2C1=O	1.3	-0.06
